Env fusion inh: HIV envelope-mediated fusion inhibition | inhibition, % at 12.3 µM | actives 1.1% (n = 360,000) | HeLa-JRFL Env/CEM21 cell fusion, luciferase | AID 651610;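 active = mean replicate inhibition score of at least 50 and every replicate individually at or above 50; inconclusive = only one of the two criteria met; inactive = mean below 50 and not all replicates reaching 50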;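 note: 0% = plate neutral controls and 100% = maraviroc near 300 nM; one replicate is shown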
eIF4H FP inh: inhibitors of RNA binding by human eIF4H; Q15056; eIF4H fluorescence polarization binding assay; inhibition, % at 35 µM; actives 0.94% (n = 290,000); AID 2012;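 active = 50% or more with normal probe brightness, or confirmed in later tests; inconclusive = above 50% with abnormal brightness, or retests that disagree; inactive = below 50% or failed in later tests; about a fifth of its hits are not listed in these tables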;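 note: calls also rest on retests at 20 µM and on dose response follow-up; 0% = protein and probe with vehicle and 100% = probe without protein; strong numbers were not always called active; many hits fall short of the cut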
CSC inhib: cancer stem cell inhibition; cancer stem cell-like cells viability, luminescence; inhibition, % at 7.5 µM; actives 1.1% (n = 300,000);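 active = mean at 75% or more and at least half the replicates too; inconclusive = mean and replicates disagree; tested in HMLE shEcad cells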;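 note: 0% = median of negative and 100% = median of positive control wells; the first replicate is given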
MT1-MMP act inh: MT1-MMP (human) activation inhibition; P50281; HT1080 RFP-PRO-GFP cells, GFP/RFP ratio fluorescence, overnight; percent of plate control window, DMSO zero; GFP/RFP ratio change, % at 20 µM; actives 0.061% (n = 360,000); AID 651647;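 active = GFP/RFP ratio change of at least 30% with cell ATP level not reduced by more than half and red fluorescence within 50% of control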; note: strong numbers were not always called active
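Assay system: HT1080 RFP-PRO-GFP cells | Dosing: 20 µM single dose, 1% DMSO | Incubation: Cells overnight before dosing, compound overnight, 37 °C, 5% CO2 | Evaluation: GFP/RFP fluorescence ratio | Control set: DMSO-only wells and HT1080 RFP-L50D-GFP cell wells as references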
PABP FP inh: blocks human PABP binding to poly(A) RNA | fluorescence polarization | inhibition, % at 35 µM | AID 2014 | actives 1% (n = 290,000);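 active = 50% or more with normal probe brightness, or confirmed in later tests; inconclusive = above 50% with abnormal brightness, or retests that disagree; inactive = below 50% or failed in later tests; about a fifth of its hits are not listed in these tables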;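 note: calls also rest on retests at 20 µM and on dose response follow-up; controls were probe without protein and protein plus probe with vehicle; some compounds called inactive have numbers as strong as hits; many hits fall short of the cut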
Rce1 inhib: yeast Ras-converting enzyme inhibition; Q03530; yeast membranes, quenched prenylated peptide cleavage fluorescence; calls only; actives 0.27% (n = 290,000); AID 2563;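 active = fall in fluorescence gain of 50% or more versus controls, with final raw signal at or below 3038400; inconclusive = same 50% fall but final raw signal above 3038400; inactive = fall in fluorescence gain under 50%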;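 note: plate controls were neutral control wells for no effect and wells lacking membranes for full effect; tested at 10 µM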
Target sequence (Q03530 whole entry, looked up): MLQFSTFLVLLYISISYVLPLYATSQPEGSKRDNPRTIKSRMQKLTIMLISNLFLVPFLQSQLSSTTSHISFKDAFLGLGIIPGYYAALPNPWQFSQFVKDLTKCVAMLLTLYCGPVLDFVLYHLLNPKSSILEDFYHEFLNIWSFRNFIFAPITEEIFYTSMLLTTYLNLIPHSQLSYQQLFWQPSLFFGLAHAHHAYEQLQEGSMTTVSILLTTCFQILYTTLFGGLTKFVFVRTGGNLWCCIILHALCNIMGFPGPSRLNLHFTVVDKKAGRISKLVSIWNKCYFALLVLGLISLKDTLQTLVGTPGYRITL
UUG fidelity: yeast start codon fidelity modulation | S. cerevisiae UUG-firefly luciferase reporter, luminescence/redox ratio | activity score, % at 18.7 µM | actives 0.13% (n = 350,000) | AID 602363;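 active = replicate mean at a twofold rise or more, about +100% in these data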;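 note: firefly luciferase made from a UUG start codon reports start codon fidelity; reporter light over untreated wells divided by growth signal over untreated wells; some hits fall short of that in this replicate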
MT1-MMP act inh RFP: further read-out of MT1-MMP act inh, marked with its call; RFP signal change, %; measured here: RFP expression control read;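 0 = vehicle wells; hits needed this value within 50% of zero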
* hit, by the source's call; i = inactive; ? = inconclusive; / = not tested or not shown; & = joins results of further samples; [ ] = remark or other dose. No enrichment for hits; about 2.9% have a hit in one of these screens.

SMILES | Env fusion inh | eIF4H FP inh | CSC inhib | MT1-MMP act inh | MT1-MMP act inh RFP | PABP FP inh | Rce1 inhib | UUG fidelity
CCOC(=O)C1=C(COC(=O)c2ccc(OC)c(OC)c2OC)NC(=O)NC1C (stereo unspecified) | / | / | -2 | 0 | 1 | / | i | -8
COC(=O)C1=C(C(=O)OC)[C@@H]2N(C)c3ccc(OC)cc3[C@@]23C[C@@H](C(=O)OC)N=C3N1 | -2 | 0 | -5 | 9 | 4 | 3 | i | -10
Cc1cc(C)n(-c2ccc(C(=O)OCC(=O)c3c(N)n(C)c(=O)n(C)c3=O)cc2)n1 | 35 | -4 | / | -2 | -15 | 2 | i | -23
CC(=O)c1c(C)[nH]c(C(=O)OCC(=O)NCc2ccc3c(c2)OCO3)c1C | 18 | / | -4 | -2 | -6 | / | / | -2
COc1ccccc1C(=O)Nc1ccnn1C1CCN(C(=O)c2cnsn2)CC1 | -4 | -15 | -6 | -2 | 0 | 9 | i | -6
Cc1ccc(S(=O)(=O)CCC(=O)OC2CC(C)OC2=O)cc1 (stereo unspecified) | -14 | / | -15 | 1 | -1 | / | / | -15
Cc1cccc(C(=O)O[C@H]2[C@H](Cc3ccccc3)NS(=O)(=O)[C@H]3CC4C=C[C@]23O4)c1 | -31 | / | -7 | 0 | -1 | / | / | -18
CCCC(=O)Nc1ccc2c(c1)nc(CN1CCN(C(=O)OCC)CC1)n2CC | 1 | 1 | 50 | -8 | -13 | 1 | i | -16
CC1(C)CC(=O)c2c(O)cc(OCC(=O)N3CCN(c4ccc(F)cc4)CC3)cc2O1 | 11 | -10 | -8 | 4 | -1 | 6 | i | -15
CCOC(=O)c1ccc(Oc2nc(N(C)C)nc(N(C)C)n2)cc1 | -61 | -7 | -13 | 7 | -1 | -6 | i | -6
CC1(C)CC(=O)C/C(=N/NC(=O)COc2ccc3ccccc3c2Br)C1 | -246 | -3 | -1 | 2 | -4 | -9 | / | -9
CCOC(=O)C1CCN(C(=O)COC(=O)CSc2ccc([N+](=O)[O-])cc2)CC1 | -1 | / | -12 | -2 | 1 | / | i | -27
CC(=C/c1ccco1)/C=N/NC(=O)c1ccncc1 | -1 | 16 | 16 | -2 | 2 | 14 | i | -16
COc1ccc2nc(N3CCCCC3)c(C#N)cc2c1 | -132 | 15 | -11 | -12 | 3 | 30 | i | -8
Cc1csc(SCC(=O)Nc2ccc(S(=O)(=O)N3CCCC3)cc2)n1 | / | -3 | -8 | 3 | 3 | 5 | i | -4
CCN(CC)c1ccc(C2CC(=O)Nc3cc(OC)c(OC)cc32)cc1 (stereo unspecified) | / | -8 | -6 | -5 | -5 | -5 | i | -14
Cc1ccc(Nc2nnc(SCC(=O)Nc3cccc(S(=O)(=O)NC4=NCCCCC4)c3)s2)c(C)c1 | -3 | -6 | -9 | -6 | -9 | 8 | i | /
CCOC(=O)N1CCC(NCCNC(=O)c2cccc(F)c2)CC1 | -2 | / | 3 | 0 | 6 | / | / | -7
Cc1cc(C)cc(C(=O)Nc2nnc(SCC(=O)NCC3CCCO3)s2)c1 (stereo unspecified) | -9 | -8 | -5 | 0 | 5 | -12 | i | -6
Cc1ccc(NC(=O)COC(=O)CN2C(=O)COc3ccccc32)cc1 | 18 | 5 | / | 2 | 5 | 8 | i | -5
CC(Cc1ccsc1)NC(=O)CCc1nnc(CCc2ccccc2)o1 (stereo unspecified) | 17 | -6 | -25 | -2 | 1 | -8 | i | /
O=C1OC(c2ccccc2)C(O)=C1c1ccccc1 (stereo unspecified) | 9 | / | / | 2 | 3 | / | / | -15
Fc1ccccc1/C=N/n1cnnc1 | -18 | 1 | -2 | 4 | 6 | -6 | i | 0
COCC(=O)Nc1ccc(Br)cc1C | 2 | -11 | 4 | 0 | 0 | -5 | i | 3
C=CCn1sc(N)c(C(=O)OCC)c1=S | / | 2 | -8 | 9 | 5 | 2 | i | -12
COc1ccc(C(O)c2nc(-c3ccc(F)cc3OC)cs2)cc1 (stereo unspecified) | 5 | / | / | -1 | 0 | / | / | -15
Cc1ccc(S(=O)(=O)CCC(=O)NNC(=O)CN(C)S(=O)(=O)c2ccc(C)cc2)cc1 | 14 | / | 1 | -1 | 3 | / | / | 5
CC1CC(=O)C(C(C2=C(O)CC(C)CC2=O)c2ccccc2)=C(O)C1 (stereo unspecified) | -13 | / | / | -3 | 5 | / | / | -5
CCC(c1nnc(SCC(=O)Nc2ccc(Cl)cc2C(F)(F)F)n1C1CCCCC1)N(C)C (stereo unspecified) | / | -19 | 11 | 1 | 4 | 1 | i | /
Nc1ccc(C(=O)N/N=C2\CCCc3c2[nH]c2ccccc32)cc1 | -202 | -4 | 49 | 8 | -2 | 3 | i | -16
CC(C)(C)C1=Nn2c(nnc2-c2ccccc2F)SC1 | / | -1 | -6 | -6 | -5 | 0 | i | -19
CC/C(=N\N=C(/CC)c1ccccc1N)c1ccccc1N | 5 | / | / | -6 | -7 | / | i | -14
COC(=O)c1ccc(CSC2=NC[C@@H]3[C@@H]4C(=O)N(Cc5ccccc5)C(=O)[C@@H]4[C@](C)(C(=O)OC)N23)cc1 | 28 | / | / | 1 | 2 | / | / | 0
CCc1ccccc1N(C)S(=O)(=O)c1ccc(-c2cc(C)no2)s1 | 13 | -8 | 61 | -11 | -15 | 10 | i | 0
COc1cccc(N2C(=O)/C(=C\c3cccs3)NC2=S)c1 | -9 | -3 | 13 | 4 | -4 | 11 | i | /
O=C(CN1C(=O)C2CC=CCC2C1=O)Nc1nnc(SCc2ccc(Cl)cc2)s1 (stereo unspecified) | -70 | -11 | 1 | -8 | -4 | 6 | i | -12
COc1ccc(C(=O)N2CCCC(c3cc(C(=O)NCc4ccccc4)no3)C2)cc1 (stereo unspecified) | -155 | / | / | 7 | 2 | / | / | -2
Cc1cc(Cl)ccc1OCC(=O)N/N=C/c1ccc(OC2OC(CO)C(O)C(O)C2O)cc1 (stereo unspecified) | -8 | -14 | -4 | 1 | -3 | -2 | i | /
O=C(N[C@@H](Cc1ccccc1)C(=O)CCl)OCc1ccccc1 | 6 | / | 42 | -3 | -3 | / | / | -29
CC(C)CC(=O)Nc1sc2c(c1C#N)CC(C)(C)NC2(C)C | / | 6 | 3 | 0 | 2 | -5 | i | -36
O=C1CS/C(=N/N=C/c2ccccc2OS(=O)(=O)c2ccccc2)N1 | 3 | 6 | -18 | -1 | 0 | -2 | i | /
CC[C@@]1(C(=O)OC)N[C@H](CN(C)C(=O)Nc2ccc(C(F)(F)F)cc2)[C@@H]2C(=O)N(Cc3ccccc3)C(=O)[C@@H]21 | 85* | / | / | -2 | -4 | / | / | 0
COc1cc(C2N(c3ccc(F)cc3)C(=O)C3CCCN32)cc(OC)c1OC (stereo unspecified) | -12 | -4 | 0 | -2 | 3 | 10 | i | 0
CCOC(=O)Cc1csc(NC(=O)c2ccc(NC(C)=O)cc2)n1 | / | 5 | -12 | 0 | 7 | ? | i | -10
CC(C)(C)OC(=O)NCCCCCNC(=O)c1nc[nH]c1C(=O)N1CCc2ccccc2C1 | 22 | / | 6 | 5 | 2 | / | / | -7

Whole records, quoted from the list.
CC(C)CC(=O)Nc1sc2c(c1C#N)CC(C)(C)NC2(C)C is entered as Env fusion inh: /; eIF4H FP inh: 6; CSC inhib: 3; MT1-MMP act inh: 0; MT1-MMP act inh RFP: 2; PABP FP inh: -5; Rce1 inhib: i; UUG fidelity: -36
CCOC(=O)Cc1csc(NC(=O)c2ccc(NC(C)=O)cc2)n1 is entered as Env fusion inh: /; eIF4H FP inh: 5; CSC inhib: -12; MT1-MMP act inh: 0; MT1-MMP act inh RFP: 7; PABP FP inh: ?; Rce1 inhib: i; UUG fidelity: -10

(further entries)
SMILES | Env fusion inh | eIF4H FP inh | CSC inhib | MT1-MMP act inh | MT1-MMP act inh RFP | PABP FP inh | Rce1 inhib | UUG fidelity
O=C(NCCCCNC(=O)c1ccc(Br)cc1)c1ccc(Br)cc1 | 5 | -8 | -1 | 9 | 8 | -10 | i | -10
O=C(Nc1nccs1)c1ccc(Br)c(S(=O)(=O)N2CCOCC2)c1 | 0 | -1 | -17 | 3 | 0 | -1 | i | -18
O=C(C#Cc1ccccc1)NCc1ccccc1F | -50 | 2 | / | 6 | 1 | -7 | i | -1
CN1CCC(CNC(=O)Nc2csc3ccccc23)CC1 | 6 | 14 | -11 | -4 | -5 | 11 | i | -3
O=C(CN1C(=O)NC2(CCCC2)C1=O)NCC1CCCO1 (stereo unspecified) | 11 | -6 | 0 | 3 | 8 | ? | i | /
COc1ccc(S(=O)(=O)N2CCOCC2)cc1C(=O)NCC(c1ccco1)N1CCCC1 (stereo unspecified) | -2 | / | -16 | 2 | 2 | / | / | -7
O=C(COC(=O)CCC1CCCC1)Nc1ccc(Cl)cn1 | 7 | -2 | / | 0 | 5 | 14 | i | 0
COc1ccc(CCNC(=O)C2CC3Cn4c(nc5ccccc54)C3N2Cc2ccccc2)cc1 (stereo unspecified) | 12 | / | 11 | 2 | -1 | / | i | -18
O=C1OCC2=C1C(c1ccc(F)cc1)CC(=O)N2c1ccccc1 (stereo unspecified) | / | 0 | -8 | -2 | -4 | -12 | i | /
Cc1cc(S(=O)(=O)NCC2CC2)c(Cl)cc1Cl | 14 | -2 | -4 | 1 | 0 | 0 | i | -5
C/C=C/c1ccc(OCc2cc(=O)n3cc(C)ccc3n2)c(OC)c1 | 20 | 1 | 17 | 1 | 1 | 10 | i | /
COc1ccc(C(=O)N2CCN(c3ccc(N4CCOCC4)nn3)CC2)cc1OC | -61 | / | -6 | 1 | 1 | / | i | -5
CCC(C)c1ccc(OCC(=O)Nc2ccc(CN3CCOCC3)cc2)cc1 (stereo unspecified) | 27 | 3 | 7 | 2 | -10 | -8 | i | -19
CN1CCN(C(=O)c2ccc(OCCOc3ccccc3)cc2)CC1 | / | -17 | 32 | 1 | 0 | -4 | i | -14
CCOC(=O)N1CCC(NC(=O)C(NC(=O)C2CCC(C)CC2)C(C)CC)CC1 (stereo unspecified) | / | 2 | / | / | / | 4 | i | /
COc1ccc(OCCCC(=O)OC(C)C(=O)Nc2ccc(S(N)(=O)=O)cc2)cc1 (stereo unspecified) | -13 | / | -4 | 2 | 0 | / | i | /
CCc1c(C)nc2ncnn2c1NCCc1ccc(OC)c(OC)c1 | / | -2 | / | -5 | -16 | 4 | i | -12
CCOC(=O)c1sc(NC(=O)C(CC)OC(=O)C(CC(C)C)NC(=O)c2ccccc2)nc1C (stereo unspecified) | -10 | 7 | -1 | -9 | -2 | 8 | i | -8
C/C=C(\C)CN1CCN(c2ccccc2)CC1 | / | -6 | 7 | 4 | 7 | -1 | i | -8
CCOC(=O)c1[nH]c2ccc(F)cc2c1NC(=O)c1ccccc1C(=O)O | -5 | 49 | -14 | 2 | 2 | 41 | i | 11
O=C(COc1ccc(S(=O)(=O)N2CCOCC2)cc1)NCc1ccccn1 | / | -2 | -10 | 0 | -1 | -8 | i | -28
N=c1scc(-c2ccccc2)n1/N=C/c1ccco1 | -40 | 13 | -17 | 3 | 3 | -6 | i | -9
CCN1CCCC1CNC(=O)COc1cc(=O)n(C)c2ccccc12 (stereo unspecified) | -50 | 11 | -10 | 1 | 5 | 12 | i | 14
C=CCOC(=O)C1=C[C@@H](c2ccc(C(F)(F)F)cc2)[C@H](CCCO)[C@@H](OCC)O1 | -4[16.7 µM] | -2 | -10 | -12 | -9 | -1 | i | 11&0
Cc1cc(-c2nnc(SCC(=O)Nc3cccc(Cl)c3)n2N)n[nH]1 | 5 | -5 | -4 | -3 | -6 | 1 | i | -20
C=C1CCc2c([nH]c3ccc(OCC(C)C)cc23)C1=O | 1 | 0 | 87* | -10 | -1 | -3 | i | -11

Screens (PubChem)
